From PubChem
Env fusion inh – inhibitors of HIV Env-mediated cell fusion; 360,000 tested, 1.1% active; AID 651610; HeLa-JRFL Env/CEM21 cell fusion, luciferase; inhibition, % at 12.3 µM;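 active = mean replicate inhibition score of at least 50 and every replicate individually at or above 50; inconclusive = only one of the two criteria met; inactive = mean below 50 and not all replicates reaching 50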;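 note: 0% = plate neutral controls and 100% = maraviroc near 300 nM; one replicate is shown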
CSC inhib – cancer stem cell inhibition | cancer stem cell-like cells viability, luminescence | inhibition, % at 7.5 µM | 300,000 tested, 1.1% active;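 active = mean at 75% or more and at least half the replicates too; inconclusive = mean and replicates disagree; tested in HMLE shEcad cells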;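 note: 0% = median of negative and 100% = median of positive control wells; the first replicate is given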
MT1-MMP act inh – MT1-MMP (human) activation inhibition | P50281 | HT1080 RFP-PRO-GFP cells, GFP/RFP ratio fluorescence, overnight; percent of plate control window, DMSO zero | GFP/RFP ratio change, % at 20 µM | 360,000 tested, 0.061% active;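 active = GFP/RFP ratio change of at least 30% with cell ATP level not reduced by more than half and red fluorescence within 50% of control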; note: strong numbers were not always called active
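Assay system: RFP-PRO-GFP reporter HT1080 cells; read-out basis: GFP/RFP fluorescence ratio; benchmarks: DMSO wells and RFP-L50D-GFP cells; doses: 20 µM single dose, 1% DMSO; schedule: overnight cell settling, then overnight compound exposure, 37 °C, 5% CO2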
eIF4H FP inh – inhibitors of RNA binding by human eIF4H; eIF4H fluorescence polarization binding assay; inhibition, % at 35 µM; 290,000 tested, 0.94% active; AID 2012;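 active = 50% or more with normal probe brightness, or confirmed in later tests; inconclusive = above 50% with abnormal brightness, or retests that disagree; inactive = below 50% or failed in later tests; about a fifth of its hits are not listed in these tables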;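 note: calls also rest on retests at 20 µM and on dose response follow-up; 0% = protein and probe with vehicle and 100% = probe without protein; strong numbers were not always called active; many hits fall short of the cut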
PABP FP inh – PABP-poly(A) binding inhibition. P11940. PABP-poly(A) RNA binding, fluorescence polarization. inhibition, % at 35 µM. 290,000 tested, 1% active;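 active = 50% or more with normal probe brightness, or confirmed in later tests; inconclusive = above 50% with abnormal brightness, or retests that disagree; inactive = below 50% or failed in later tests; about a fifth of its hits are not listed in these tables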;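 note: calls also rest on retests at 20 µM and on dose response follow-up; controls were probe without protein and protein plus probe with vehicle; some compounds called inactive have numbers as strong as hits; many hits fall short of the cut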
Rce1 inhib – blocks yeast Ras-converting enzyme | Q03530 | yeast membranes, quenched prenylated peptide cleavage fluorescence | calls only | 290,000 tested, 0.27% active;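 active = fall in fluorescence gain of 50% or more versus controls, with final raw signal at or below 3038400; inconclusive = same 50% fall but final raw signal above 3038400; inactive = fall in fluorescence gain under 50%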;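 note: plate controls were neutral control wells for no effect and wells lacking membranes for full effect; tested at 10 µM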
Target sequence (Q03530 whole entry, looked up): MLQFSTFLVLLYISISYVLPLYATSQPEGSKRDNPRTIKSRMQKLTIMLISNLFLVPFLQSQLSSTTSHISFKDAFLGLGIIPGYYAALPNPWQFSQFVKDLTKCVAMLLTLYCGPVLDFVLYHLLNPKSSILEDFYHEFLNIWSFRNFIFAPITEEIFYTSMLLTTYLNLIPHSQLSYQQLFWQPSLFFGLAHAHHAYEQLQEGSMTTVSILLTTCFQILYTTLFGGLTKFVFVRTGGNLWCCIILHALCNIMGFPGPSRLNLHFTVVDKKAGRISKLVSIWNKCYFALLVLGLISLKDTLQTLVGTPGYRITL
Yeast UUG start – modulators of start codon recognition fidelity in yeast | activity score, % at 18.7 µM | S. cerevisiae UUG-firefly luciferase reporter, luminescence/redox ratio | 350,000 tested, 0.13% active;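 active = replicate mean at a twofold rise or more, about +100% in these data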;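 note: firefly luciferase made from a UUG start codon reports start codon fidelity; reporter light over untreated wells divided by growth signal over untreated wells; some hits fall short of that in this replicate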
eIF4H FP inh retest – also measured in eIF4H FP inh; calls as there; inhibition, %; compound at 20 µM; confirmation average;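 mean of two retest wells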
PABP FP inh retest – further read-out of PABP FP inh, marked with its call; inhibition, %; compound at 20 µM; confirmation repeats;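 mean of two retest wells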
MT1-MMP act inh RFP – further read-out of MT1-MMP act inh, marked with its call; RFP signal change, %; measured here: RFP expression control read;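 0 = vehicle wells; hits needed this value within 50% of zero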
* marks the source's active call; other numbers are inactive results; i = inactive; ? = inconclusive; nt = no result given; & = joins results of further samples; [ ] = dose if it differs, or a comment. Some of the compounds tested; count on the stated rates, not on these rows.

SMILES | Env fusion inh | CSC inhib | MT1-MMP act inh | MT1-MMP act inh RFP | eIF4H FP inh | PABP FP inh | Rce1 inhib | Yeast UUG start | others
CCCCN(C=O)c1c(CC)nc2c(OCc3ccc(Cl)cc3Cl)cccn12 | 7 | nt | 4 | -1 | nt | nt | nt | -30
CCCCN(C(=O)COc1ccc(NC(C)=O)cc1)C1CCS(=O)(=O)C1 (centres undefined) | 3 | 0 | 2 | -1 | -11 | 2 | i | -17
O=c1c(Cc2ccccc2)c(O)c2cccc3c4c(n1c23)CCCC4 | 3 | 52 | -3 | -3 | 5 | 5 | i | -15
O=C(CCCCCn1c(=S)[nH]c2ccc(N3CCOCC3)cc2c1=O)NCc1ccccc1Cl | -16 | 30 | 0 | -4 | 12 | -16 | i | -14
COc1ccc(C2(C)NC(=O)N(CC(=O)Nc3ccc(Br)cc3F)C2=O)cc1OC (centres undefined) | -9 | -6 | 3 | -2 | -4 | -8 | i | 2
COc1ccc(C2CC(c3cccs3)=NN2C(=O)c2ccc(Br)o2)cc1 (centres undefined) | 36 | 12 | -2 | -4 | 8 | 4 | i | nt
Cc1ccc(S(=O)(=O)NC2CCCCCCC2)cc1 | -15 | -20 | 2 | -5 | 1 | -12 | i | 1
COc1ccc(-c2cc3ccccc3n2CC(O)CN2CCC(C)CC2)cc1 (centres undefined) | -66 | 17 | nt | nt | ? | -5 | i | -4
CCN(CC(=O)NCc1ccc(Cl)cc1)S(=O)(=O)c1ccc(NC(C)=O)cc1 | 4 | -17 | 0 | 3 | 6 | 3 | i | nt
Cc1ccccc1N1CCN(C(=O)C2CCCCC2)CC1 | nt | 0 | 5 | 0 | 7 | 3 | i | 9
Cc1cc(=O)oc2c1ccc1oc(/C(=N/O)c3ccccc3)c(C)c12 | -62 | 42 | 2 | -6 | -6 | 0 | i | nt
O=C(Nc1cc2c3c(c1)CC(=O)N3CCC2)c1ccccc1F | 17 | 4 | -9 | 5 | nt | nt | i | -17
O=C(NCc1cccnc1)C1CCN(C(=O)c2ccc(Cl)cc2Cl)CC1 | -38 | 7 | 10 | 5 | -8 | 4 | i | nt
CC(C)N(C(=O)c1ccccc1-c1ccccc1)C(C)C | 28 | 4 | -5 | -3 | -10 | -2 | i | -7
CCC(Oc1ccccc1OC)C(=O)Nc1ccc2c(c1)OCCO2 (centres undefined) | 4 | 3 | 1 | 1 | 7 | 25 | i | 1
Cc1nn(CC(=O)NC2CC2)c(C)c1S(=O)(=O)N(C)C | -1 | nt | -5 | 3 | nt | nt | nt | -15
CC(=O)c1cnc2cc(-c3ccc(Cl)cc3)nn2c1C | nt | -8 | 8 | -1 | 2 | 7 | i | 0
CCOC(=O)c1ccc(CSc2ncn[nH]2)o1 | 4 | -8 | nt | nt | 4 | 5 | i | -16
Cc1cc(C)n2nc(SC(C)C(=O)NC3CCCCC3C)nc2n1 (centres undefined) | 27 | -3 | -4 | 1 | nt | nt | i | 15
CSCC[C@H](N)C(=O)NC[C@H]1O[C@@H](n2cnc3c(N)ncnc32)[C@H](O)[C@@H]1O | 40 | nt | -3 | 0 | nt | nt | nt | -27
Cc1cccc(C)c1NC(=O)CNC(=O)Cc1ccccc1[N+](=O)[O-] | -2 | -15 | 0 | 5 | 0 | 6 | i | 3
N#Cc1ccccc1Cn1c(=O)n(-c2ccc(CC(=O)NCc3ccco3)cc2)c(=O)c2sccc21 | 8 | -2 | 2 | 1 | 33 | -8 | i | 0
CCOC(=O)C1CCN(C(=O)c2sccc2Cl)CC1 | 13 | 13 | 0 | 3 | -2 | 5 | i | -6
CSCC[C@H](NC(=O)CCn1nnc2ccccc2c1=O)C(=O)O | -17 | -9 | 1 | 10 | -2 | 9 | i | -12
Cc1nn(C(C)C(=O)NCc2ccccc2)c(C)c1[N+](=O)[O-] (centres undefined) | nt | -7 | 2 | 2 | -12 | 5 | nt | -9
CCCOC1CCCN(C(=O)CCCn2nnnc2CN2CCOCC2)C1 (centres undefined) | nt | 17 | 0 | 3 | -7 | 6 | i | -23
Cc1ccc(C)n1NC(=O)c1ccc(O)cc1 | 22 | 2 | -4 | 3 | -2 | -6 | i | 1
O=C(CSc1nc2ccccc2s1)NCC1CCCO1 (centres undefined) | -5 | -12 | 0 | 2 | -6 | -1 | i | -19
O=C(CSc1ccccc1)Nc1ccc(N2CCN(c3ccccc3)CC2)c(F)c1 | nt | -3 | 5 | 2 | 5 | -10 | i | -20
CCOC(=O)N1CCN(C(=O)CSCC(=O)Nc2nc(-c3ccccc3)cs2)CC1 | -18 | -17 | 2 | -1 | -16 | -16 | i | nt
CN(C)c1ccc(C(=O)OCC(=O)c2cccs2)cc1 | -56 | -1 | 0 | -1 | -1 | 2 | i | nt
CC(C)(C)NC(=O)CN(C(=O)c1csnn1)c1cccc2c1CCCC2 | -5 | -8 | 7 | 4 | 3 | 0 | i | nt
CCOc1nc(N2CCOCC2)nc(N2CCOCC2)n1 | 1 | 8 | 0 | 1 | -3 | -1 | i | -9
COCCNC(=O)CN1N=C(c2ccc(C)cc2)CCC1=O | -1 | -4 | -1 | 0 | -6 | -4 | i | -15
C=CCc1ccc(OCCCCCN2CCOCC2)c(OC)c1 | nt | 27 | 1 | 2 | -6 | 17 | i | nt
COC(=O)c1c(S(N)(=O)=O)c2ccccc2n1C | -28 | -8 | 2 | 9 | 6 | 8 | i | -1
O=C(CSc1nc2cc3ccccc3cc2[nH]1)Nc1ccc(F)cc1 | -61 | -15 | -3 | -3 | -2 | 3 | i | nt
CC(C)(C)NC(=O)CSc1ncnc2c1nnn2Cc1ccccc1Cl | 49 | 15 | -9 | -10 | -9 | -6 | i | -9
O=C(NCc1ccc(F)cc1)c1cccc(NC2=NC3CS(=O)(=O)CC3S2)c1 (centres undefined) | -10 | -7 | 3 | 4 | -12 | -1 | i | -20
CC(C)(C)c1ccc(C(=O)NCCCn2ccnc2)cc1 | 3 | -5 | 6 | 3 | 9 | 9 | nt | -17
NCCc1nnc(SCc2ccccc2F)o1 | -2 | -6 | -3 | -1 | -12 | 6 | i | -11
Cc1ccccc1NC(=O)Cc1ccccc1 | -75 | nt | 3 | -3 | -3 | -1 | nt | -9
Cc1cc(NC(=O)/C=C/c2ccccc2Cl)no1 | -45 | -3 | 0 | 1 | 5 | 0 | i | nt
O=C(CNC(=O)c1ccco1)OCc1cccc(Cl)c1 | -69 | 2 | 5 | 3 | 1 | 6 | i | -16
CC1CCCC(C)N1C(=O)CSc1nnc(COc2cccc3cccnc23)o1 (centres undefined) | -14 | 2 | -9 | -3 | -11 | -2 | i | nt
Cc1cccc(-c2noc(CCC(=O)NCC3CCCO3)n2)c1 (centres undefined) | 25 | nt | 5 | 6 | -2 | 3 | i | 2
O=[N+]([O-])c1cc([N+](=O)[O-])c(Oc2cccc3c2CCCC3)cc1NN1CCCCC1 | 9 | nt | -3 | -1 | nt | nt | nt | -14
O=C(CN(c1ccccc1)S(=O)(=O)c1ccc(F)cc1)NC1CCCCCC1 | 19 | -1 | -1 | 2 | -12 | -2 | i | -1
CCCCOc1ccc(S(=O)(=O)NC(=O)C2(C)CCN2C(=O)c2c(C)noc2C)cc1 (centres undefined) | -4 | nt | 1 | 4 | nt | nt | nt | -2
CCc1ccccc1Nc1nc(N)nc(COC(=O)C2=COCCO2)n1 | -22 | 2 | 4 | 1 | nt | nt | nt | -25
CCN(CC)CCSc1nnc2c3ccccc3n(Cc3ccccc3)c2n1 | -11 | 79* | -9 | -14 | -8 | 14 | i | -20
CN1CCN(CC(=O)Nc2sc3c(c2C(=O)Nc2ccccc2)CCCC3)CC1 | 9 | -9 | 2 | 3 | 4 | 60* | i | -2 | eIF4H FP inh retest=-4;PABP FP inh retest=89*
COc1ccc(C)cc1NC(=O)c1nn(C)cc1Br | 21 | -7 | 0 | -1 | -10 | 3 | i | -11
CC(=O)Nc1cccc(NC(=O)CCN2C(=O)c3ccccc3S2(=O)=O)c1 | -8 | -8 | 4 | 4 | nt | nt | i | -21
CCCCCCOc1ccc(N2C(=O)CC(SC(=NCC)NCC)C2=O)cc1 (centres undefined) | -4 | 4 | 3 | 6 | 0 | 15 | i | 1
COCCN(C(=O)c1csnn1)C(C(=O)NC1CCCCC1)c1ccccc1F (centres undefined) | 0 | 5 | 0 | 1 | -4 | 18 | nt | -6
C[C@@H]1CN([C@H](C)CO)C(=O)c2cccc(NC(=O)NC3CCCCC3)c2O[C@@H]1CN(C)C(=O)Nc1ccc(C(F)(F)F)cc1 | -1[16.7 µM] | nt | -3 | -19 | nt | nt | nt | -7&-13
O=C(O)c1cccnc1SCC(=O)C12CC3CC(CC(C3)C1)C2 | -9 | 13 | 4 | 1 | -6 | -9 | i | -4
Cc1n[nH]c(C)c1CCCCOc1ccccc1 | -10 | -20 | 7 | -10 | -6 | 4 | nt | -33
Cc1cc(/C=N/NC(=O)C(O)(c2ccccc2)c2ccccc2)c(C)n1-c1cccc(C(=O)O)c1 | 3 | -1 | -2 | 7 | 80 | 44 | i | -8 | eIF4H FP inh retest=14;PABP FP inh retest=36
Cc1cccc(NC(=S)Nc2ccc(N3CCOCC3)cc2)c1C | 17 | 18 | 14 | 9 | 4 | -1 | i | -25
Cc1cc(=O)oc2cc(NC(=O)c3c(Cl)cnn3C)ccc12 | 3 | -1 | -2 | 1 | -2 | 11 | i | -14

Of the compounds above, 10 have an aryl thioether with sulfur outside any ring:
SMILES | Env fusion inh | CSC inhib | MT1-MMP act inh | MT1-MMP act inh RFP | eIF4H FP inh | PABP FP inh | Rce1 inhib | Yeast UUG start | others
CCOC(=O)c1ccc(CSc2ncn[nH]2)o1 | 4 | -8 | nt | nt | 4 | 5 | i | -16
Cc1cc(C)n2nc(SC(C)C(=O)NC3CCCCC3C)nc2n1 (centres undefined) | 27 | -3 | -4 | 1 | nt | nt | i | 15
O=C(CSc1nc2ccccc2s1)NCC1CCCO1 (centres undefined) | -5 | -12 | 0 | 2 | -6 | -1 | i | -19
O=C(CSc1ccccc1)Nc1ccc(N2CCN(c3ccccc3)CC2)c(F)c1 | nt | -3 | 5 | 2 | 5 | -10 | i | -20
O=C(CSc1nc2cc3ccccc3cc2[nH]1)Nc1ccc(F)cc1 | -61 | -15 | -3 | -3 | -2 | 3 | i | nt
CC(C)(C)NC(=O)CSc1ncnc2c1nnn2Cc1ccccc1Cl | 49 | 15 | -9 | -10 | -9 | -6 | i | -9
NCCc1nnc(SCc2ccccc2F)o1 | -2 | -6 | -3 | -1 | -12 | 6 | i | -11
CC1CCCC(C)N1C(=O)CSc1nnc(COc2cccc3cccnc23)o1 (centres undefined) | -14 | 2 | -9 | -3 | -11 | -2 | i | nt
CCN(CC)CCSc1nnc2c3ccccc3n(Cc3ccccc3)c2n1 | -11 | 79* | -9 | -14 | -8 | 14 | i | -20
O=C(O)c1cccnc1SCC(=O)C12CC3CC(CC(C3)C1)C2 | -9 | 13 | 4 | 1 | -6 | -9 | i | -4
